Source: PubChem
RanGTP-Impb inh – inhibitors of RanGTP-importin-beta interaction, primary screen, biochemical, FRET, CFP-Ran, YFP-importin-beta, homogeneous | cell-free CFP-Ran/YFP-importin-beta FRET ratio | inhibition, % (test concentration not listed) | 1.1% of 300,000 active;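 active means most replicates above 15%; inconclusive means exactly half above 15%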;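 further: 0% = DMSO wells and 100% = Ran loaded with GDP instead of GTP; wells of about 40 µL received 100 nL stock; the first replicate is given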
HNF4A DNA FP – change in binding of human HNF4 alpha to DNA. P41235. HNF4a-FITC DNA binding, fluorescence polarization, 1 h. activity change, % at 10 µM. 0.3% of 360,000 active; in the data active means activity change above about 30%, passing the limit was not always enough;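 further: controls were the assay level and a saturating level of protein; the project sought stronger binding though the title names inhibitors; some compounds called inactive have numbers as strong as hits; positive values seem to mean higher polarization but the record does not say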
B2AR ag – human beta-2 adrenergic receptor agonism by FAP; Am2.2-beta2AR cells, FAP receptor internalization, flow cytometry; reference of the scale not given here; 0.43% of 340,000 active; response, % (test concentration not listed); AID 504454;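 active means response above a set limit, near 3 SD of response in nonfluorescent compounds, cut at about 42% in these data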;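 further: stock transfer was 100 nL into about 11 µL; a reference agonist was the positive control; negative values mostly stem from fluorescent compounds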
Target sequence (P07550 whole entry, looked up): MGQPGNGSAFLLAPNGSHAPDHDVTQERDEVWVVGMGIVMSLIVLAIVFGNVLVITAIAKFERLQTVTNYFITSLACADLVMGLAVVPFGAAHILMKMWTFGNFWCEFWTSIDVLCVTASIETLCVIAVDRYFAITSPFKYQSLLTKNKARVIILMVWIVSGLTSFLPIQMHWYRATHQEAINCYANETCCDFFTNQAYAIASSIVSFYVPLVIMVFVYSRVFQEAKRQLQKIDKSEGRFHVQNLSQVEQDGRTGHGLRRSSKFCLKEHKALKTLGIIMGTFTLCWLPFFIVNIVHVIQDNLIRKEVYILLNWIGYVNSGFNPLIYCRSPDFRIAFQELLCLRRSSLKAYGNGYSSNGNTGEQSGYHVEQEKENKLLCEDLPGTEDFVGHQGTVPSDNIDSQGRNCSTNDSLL
ALR H2O2 inh – blocks human ALR sulfhydryl oxidase activity; purified ALR, DTT oxidation, H2O2 HRP-luminol luminescence; inhibition, % (no concentration beside the values); 3.8% of 290,000 active; AID 485317;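 active means mean and each replicate at 75% or more; inconclusive means only one of the two met; inactive means neither met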;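 further: stock transfer was 7.5 nL into about 7.5 µL; 0% = neutral wells and 100% = wells with inactivated enzyme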
Target sequence (P55789 whole entry, looked up): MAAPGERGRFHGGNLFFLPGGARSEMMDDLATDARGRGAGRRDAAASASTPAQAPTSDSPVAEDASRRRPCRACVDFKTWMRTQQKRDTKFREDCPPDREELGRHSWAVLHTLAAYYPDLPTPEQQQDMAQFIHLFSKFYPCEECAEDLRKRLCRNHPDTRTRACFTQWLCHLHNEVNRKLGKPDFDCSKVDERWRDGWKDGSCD
LANA-H2B inh – blocks KSHV LANA binding to histone H2A/H2B | Q9QR71 | cell-free LANA-H2A/H2B peptide, fluorescence polarization | inhibition, % (concentration not given with the values) | 0.6% of 320,000 active; in the data active means inhibition mostly above about 10%, no sharp cut-off; inactive means mostly below about 6.7%;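 further: stock transfer was 7.5 nL into about 10 µL; 0% = median of vehicle wells and 100% = median of positive control wells; one replicate is shown; the record names a cut of 25% in any replicate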
Vif TR-FRET – HIV-1 Vif–A3G interaction blockers – biochemical, TR-FRET, GST-Vif 1-94, biotin-A3G peptide, dose response retest, primary screen (AID 1117319); TR-FRET GST-Vif / biotin-A3G peptide binding; higher % means a stronger effect; test concentration not given here; strong numbers were not always called active; inhibition, %, or IC50 in µM where a hit was titrated; 0.57% of 260,000 active;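 active means above the screen mean plus three standard deviations and confirmed in dose response; inconclusive means results disagree or hit not tested in dose response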;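 further: Vif residues 1-94 fused to GST binding biotinylated APOBEC3G peptide 110-148; 0% = full assay without inhibitor and 100% = GST in place of GST-Vif; retest series ran down from 100 µM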
Calb FLC – affects C. albicans growth with fluconazole. C. albicans CaCi-2 (fluconazole-resistant clinical isolate) + fluconazole, Alamar Blue growth, 48 h. growth inhibition, % (test concentration not listed). 0.57% of 300,000 active. AID 1979;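 active means most replicates above 75%; inconclusive means exactly half above 75%; inactive means most below 75%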;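 further: all wells also contain fluconazole at 8 µg/ml as a sub-toxic cotreatment; 0% = median of DMSO wells and 100% = median of geldanamycin control wells; wells of about 8 µL received 7.5 nL stock; the first replicate is given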
* hit, by the source's call; ? = inconclusive; . = no result given; & = joins results of further samples.

[1] CCc1nnc(NC(=O)Cc2c[nH]c3ccccc23)s1
[2] CCCCNC(=O)C1CC(=O)N(CCc2ccccc2)C1 (centres undefined)
[3] CCCCNC(=O)Nc1cc(C(F)(F)F)c[nH]c1=O
[4] CCN1CCN(CCCNC(=O)CCCn2nc(C)c3sc4ccccc4c3c2=O)CC1
[5] Cc1oc(-c2cccc(Cl)c2)nc1CN1CCC(C(=O)NCCCN2CCCC2=O)CC1
[6] COc1ccc(CCNC(=S)NNC(=O)c2c(Br)c(C)nn2C)cc1OC
[7] COC(=O)C1=C(CS(=O)(=O)c2ccccc2)NC(=O)NC1c1ccc(OC)c(OC)c1 (centres undefined)
[8] Cc1ccc(S(=O)(=O)NC2(C(=O)O)CCCC2)cc1

Compound	1	2	3	4	5	6	7	8
RanGTP-Impb inh	?	3.1	?	-2.4	2.2	0.0	-2.3	.
HNF4A DNA FP	3.7	-0.4	-3.3	7.4	3.1	0.8	3.9	-1.2
B2AR ag	2.3	-16.1	-20.1	-6.5	-5.0	3.2	-1.5	-9.4
ALR H2O2 inh	-49.8	0.3	-1.3	.	-3.4	42.1	-11.0	.
LANA-H2B inh	5.0	-4.2	-8.3	1.5	-7.5	-4.9	-0.9	.
Vif TR-FRET	.	-0.9%	0.6%	.	-2.1%&-1.9%	.	6.8%	2.6%
Calb FLC	-3.8	2.4	-2.2	4.5	7.9	-18.3	-5.9	.

[9] N#CCc1nn(Cc2ccc(F)cc2)c(=O)c2ccccc12
[10] N#Cc1ccccc1NC(=O)COC(=O)c1ccc2c(c1)OCCO2
[11] COc1c(Cl)cc(-c2noc(C)c2C(=O)NC(C)C)cc1Cl
[12] CCOC(=O)C1CN(S(=O)(=O)c2ccc(C)cc2)CCN1S(=O)(=O)c1ccc(C)cc1 (centres undefined)
[13] Cn1[nH]c(-c2ccccc2)c(/C=N/O)c1=O
[14] COc1ccc(/C=C/C(=O)OCCCN(C)C)cc1
[15] CC(C)CNc1nc(N)c([N+](=O)[O-])c(NCc2ccccc2)n1
[16] CCC1CN(C(=O)NCc2ccc(F)cc2)c2ccccc2O1 (centres undefined)

Compound	9	10	11	12	13	14	15	16
RanGTP-Impb inh	-0.2	4.7	3.3	1.1	-0.8	-1.0	0.9	1.8
HNF4A DNA FP	-1.6	-1.5	-3.4	-1.2	2.0	-0.5	-1.6	0.4
B2AR ag	-8.8	-1.4	6.2	4.3	3.8	1.3	0.1	-0.3
ALR H2O2 inh	-9.6	-5.2	93.3*	-13.5	2.8	-7.3	9.6	10.7
LANA-H2B inh	-2.7	-1.3	-1.8	6.4	29.3*	3.2	4.9	-3.5
Vif TR-FRET	-1.0%	-31.3%	-1.8%	7.3%	1.4%	8.4%	-11.4%	-0.5%
Calb FLC	-1.3	3.7	3.6	6.3	3.7	-19.6	0.5	2.7

A few values from the list.
cpd 3 | B2AR ag = -20.1
cpd 2 | HNF4A DNA FP = -0.4
cpd 10 | RanGTP-Impb inh = 4.7

Structures above with four or more nitrogen atoms, in the order listed:
[1] CCc1nnc(NC(=O)Cc2c[nH]c3ccccc23)s1
[4] CCN1CCN(CCCNC(=O)CCCn2nc(C)c3sc4ccccc4c3c2=O)CC1
[5] Cc1oc(-c2cccc(Cl)c2)nc1CN1CCC(C(=O)NCCCN2CCCC2=O)CC1
[6] COc1ccc(CCNC(=S)NNC(=O)c2c(Br)c(C)nn2C)cc1OC
[15] CC(C)CNc1nc(N)c([N+](=O)[O-])c(NCc2ccccc2)n1

Compound	1	4	5	6	15
RanGTP-Impb inh	?	-2.4	2.2	0.0	0.9
HNF4A DNA FP	3.7	7.4	3.1	0.8	-1.6
B2AR ag	2.3	-6.5	-5.0	3.2	0.1
ALR H2O2 inh	-49.8	.	-3.4	42.1	9.6
LANA-H2B inh	5.0	1.5	-7.5	-4.9	4.9
Vif TR-FRET	.	.	-2.1%&-1.9%	.	-11.4%
Calb FLC	-3.8	4.5	7.9	-18.3	0.5

The results go on:
[17] CC12C(=O)N(c3ccccn3)C(=O)C1C1C=CC2C1 (centres undefined)
[18] CC(NC(=O)COC(=O)c1ccc([N+](=O)[O-])o1)c1ccccc1 (centres undefined)
[19] CS(=O)(=O)N(CC(=O)N1CCC(C(N)=O)CC1)Cc1ccc(Cl)c(Cl)c1
[20] N#C/C(=C/Nc1ccccc1F)S(=O)(=O)c1ccc(Cl)cc1
[21] CCOC(=O)c1sc(NC(=O)/C=C/c2cnn(CC)c2C)c(C(=O)OCC)c1C
[22] C=CCNc1nc(SCC=C)nc2ccsc12
[23] O=S(=O)(NC1CC2CCC1C2)c1ccc(Cl)cc1 (centres undefined)
[24] CCC(C)NC(=O)Cn1c(=O)n(CCCCC(=O)NCc2ccco2)c(=O)c2ccccc21 (centres undefined)

Compound	17	18	19	20	21	22	23	24
RanGTP-Impb inh	0.9	.	9.0	-1.3	1.9	-1.9	1.1	1.7
HNF4A DNA FP	2.3	-4.0	1.3	7.7	-2.2	-0.1	-0.3	4.0
B2AR ag	3.6	-1.6	-1.0	-0.5	-3.1	-0.8	-0.7	1.7
ALR H2O2 inh	-9.3	-11.4	-2.1	-2.2	-5.2	5.2	0.1	.
LANA-H2B inh	6.3	-9.7	0.5	0.5	5.0	0.9	4.2	4.8
Vif TR-FRET	0.7%	-8.1%	.	.	30.0%	?	.	-2.2%&27.9%
Calb FLC	-4.9	.	2.7	-10.6	-1.1	-2.3	0.0	-0.7

Entries of single compounds as entered above:
Shown for CS(=O)(=O)N(CC(=O)N1CCC(C(N)=O)CC1)Cc1ccc(Cl)c(Cl)c1 = RanGTP-Impb inh: 9.0; HNF4A DNA FP: 1.3; B2AR ag: -1.0; ALR H2O2 inh: -2.1; LANA-H2B inh: 0.5; Vif TR-FRET: .; Calb FLC: 2.7
Shown for CC(NC(=O)COC(=O)c1ccc([N+](=O)[O-])o1)c1ccccc1 (centres undefined) = RanGTP-Impb inh: .; HNF4A DNA FP: -4.0; B2AR ag: -1.6; ALR H2O2 inh: -11.4; LANA-H2B inh: -9.7; Vif TR-FRET: -8.1%; Calb FLC: .

Next section:
[25] CCCn1nc(NC(=O)c2ccncc2)c2cc3ccccc3nc21
[26] Cc1cc(C(=O)Nc2ccc(F)cc2C)n(-c2ccccc2)n1
[27] Cc1sc2ncnc(SCC(=O)N3CCCC3)c2c1C
[28] CNS(=O)(=O)c1cc(Nc2ncnc3sccc23)ccc1C
[29] COc1ccccc1NC(=O)c1oc2ccc(C)cc2c1C
[30] COc1cc(Cl)c(S(=O)(=O)N2CC(C)OC(C)C2)cc1Cl (centres undefined)
[31] CCCSC(=O)N(CC)CC(=O)Nc1c(CC)cccc1CC
[32] CC(=O)c1cccc(-n2nnnc2SCC(=O)Nc2cccc(NC(=O)c3ccco3)c2)c1
[33] CCOc1ccc(S(=O)(=O)n2nc(C)c(S(=O)(=O)N3CCOCC3)c2C)cc1
[34] O=S(=O)(O)c1ccc(O)c2cc(Nc3ccccc3)ccc12

Compound	25	26	27	28	29	30	31	32	33	34
RanGTP-Impb inh	6.1	0.1	0.2	3.7	1.1	-4.2	1.0	-1.4	1.7	.
HNF4A DNA FP	1.2	5.0	0.0	1.4	-0.1	0.1	-0.4	4.8	-20.2	-86.6
B2AR ag	-16.3	-0.5	-15.2	10.5	-0.3	0.4	1.8	4.0	0.1	-3.5
ALR H2O2 inh	-3.9	-8.4	-5.0	.	.	-2.8	-24.0	?	-2.9	.
LANA-H2B inh	1.5	-1.7	1.2	2.4	-0.2	3.9	2.6	-2.9	4.1	.
Vif TR-FRET	-7.5%	24.3%	0.4%	-7.6%	98µM*	8.3%	6.5%	3.5%	.	-8.3%
Calb FLC	39.9	-6.9	19.3	-2.1	-0.4	9.5	-1.0	-3.2	26.2	.
